Menin MLL FP FL – displaces fluorescein MLL peptide from human menin; Fluorescence polarization, fluorescein-MLL peptide displacement from menin; FP activity change, % at 61.4 µM; 290,000 tested, under 10 active; AID 1766; inconclusive = falling polarisation curve, or a change in total fluorescence; inactive = total fluorescence flat and polarisation flat or rising; no compound was filed as active; the % refers to the polarisation; negative = inhibition;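 further: % of control where 0% means no effect; inhibitors lower the polarisation; unlabelled MLL peptide was the positive control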
Sfp PPTase inh – Sfp phosphopantetheinyl transferase inhibition. Biochemical Sfp PPTase activity, qHTS. Potency, µM, for inactives: max response, negative = inhibition, usual class: inhibitors. 310,000 tested, 3.5% active; active means well fitted inhibition curve with a large enough effect; inconclusive means small, poorly fitted or top-dose-only effect, or another doubt; inactive means no such curve, though single readings can be large or run the other way;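 further: the enzyme is Sfp with the accession as filed and its product quenches rhodamine fluorescence; potency means the concentration at half of the fitted maximal effect; 0% = enzyme reaction without inhibitor and -100% = no enzyme wells; top concentration of the series not given in the record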
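Fluorescence-quenching assay: 15 nM Sfp-PPTase preincubated 15 min at room temperature with compound, then 5 uM rhodamine-CoA and 12.5 uM BHQ-2-labelled YbbR peptide added. Fluorescence (ex 525/em 598 nm) read at start and after 30 min; difference gives rate.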
ClpP mod – qHTS Assay for Activators of ClpP; ATP-dependent Clp protease proteolytic subunit (Bacillus subtilis (strain 168)), P80244; purified B. subtilis ClpP, FRET peptide cleavage, 20 min; Potency, µM (doses to about 57.5 µM), for the others: at the highest dose activity change, negative = active; 340,000 tested, 1.9% active; AID 651965, 2013; active = well fitted falling curve with a large enough effect; inconclusive = small, poorly fitted or top-dose-only effect; inactive = no such curve, though single readings can be large or run the other way; further: potency means the concentration at half of the fitted maximal effect; the source files actives as falling curves though it sought activators and does not explain the sign; nearly all actives have a fitted effect of over 65% in size; many hits overshoot -100%
Target sequence (P80244 whole entry, looked up): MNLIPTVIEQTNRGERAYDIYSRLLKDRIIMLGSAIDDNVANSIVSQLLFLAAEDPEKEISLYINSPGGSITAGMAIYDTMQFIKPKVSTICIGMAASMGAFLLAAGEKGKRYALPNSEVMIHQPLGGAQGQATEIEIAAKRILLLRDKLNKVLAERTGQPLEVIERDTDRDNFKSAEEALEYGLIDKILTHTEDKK
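Purified B. subtilis ClpP, 10 microg/mL final in Tris/HCl pH8 with KCl, BSA, glycerol and Tween-20, cleaved an Abz/nitrotyrosine-quenched decapeptide. Fluorescence (ex 320, em 430) was read at 0 and 20 min at room temperature. Delta was normalized to 5.8 microM ADEP and DMSO/no-enzyme controls.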
gsp agonist – gsp mutant agonism. gsp mutant cells, cAMP HTRF, 30 min; control for the full effect not named in the record. Potency, µM (series often up to 76.9 µM), for inactives: top-dose activation (cAMP increase), usual class: activators. 340,000 tested, 0.13% active; active = well fitted activation curve with a large enough effect; inconclusive = small, poorly fitted or top-dose-only effect, or another doubt; inactive = no such curve, though single readings can be large or run the other way; cell line not stated here;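 further: phosphodiesterase inhibitor Ro 20-1724 added with compounds to block cAMP breakdown; potency means the concentration at half of the fitted maximal effect; nearly all actives have a fitted effect of over 60% in size; about a fifth of the inactives were tested at one dose only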
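Cells stably selected in G418 were plated at 2000/well, grown 16-24 hr, then given compounds in DMSO with the PDE inhibitor […] (300 uM solution added) for 30 min at 37C; cAMP was read by HTRF.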
D2 agonist – activates the human D2 dopamine receptor. DiscoveRx PathHunter D2 beta-arrestin, luminescence, 90 min; 100% = 57 uM dopamine signal. P14416. 360,000 tested, 0.084% active. activation, % (no concentration beside the values); in the data active = activation above about 40%; inconclusive = about 15% to 40%; inactive = below about 15%; further: compound concentration not given in the record; the text of the record calls up to 30% inactive
Target sequence (P14416 whole entry, looked up): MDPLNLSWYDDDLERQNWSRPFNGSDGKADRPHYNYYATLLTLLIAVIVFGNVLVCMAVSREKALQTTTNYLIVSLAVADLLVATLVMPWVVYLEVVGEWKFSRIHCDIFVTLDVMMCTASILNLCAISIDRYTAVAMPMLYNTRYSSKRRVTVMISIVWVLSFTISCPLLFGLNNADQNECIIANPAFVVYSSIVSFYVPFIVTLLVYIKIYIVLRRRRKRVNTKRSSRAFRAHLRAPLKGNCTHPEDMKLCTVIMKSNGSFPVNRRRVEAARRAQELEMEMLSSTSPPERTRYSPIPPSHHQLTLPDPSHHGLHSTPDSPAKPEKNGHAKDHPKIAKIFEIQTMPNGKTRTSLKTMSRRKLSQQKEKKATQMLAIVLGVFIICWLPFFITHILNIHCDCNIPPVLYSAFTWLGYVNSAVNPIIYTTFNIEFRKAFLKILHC
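DiscoveRx PathHunter D2 beta-arrestin cells (2,100/well) attached overnight, then compound-stimulated 90 min at 37 C in HBSS/10 mM HEPES/0.1% Tween-20 buffer; beta-galactosidase complementation read by luminescence after 1 h at ambient temperature. Dopamine 57 uM final (EC100) as control.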
PINK1 modulator – PINK1 expression modulation. PINK1 immunofluorescence, high-content cytometry, 24 h. Potency, µM (titrated, usually from 76.6 µM), for the others: at the top dose activation (PINK1 increase), hits mostly activators. 410,000 tested, 0.2% active. AID 624263; active = well fitted activation curve with a large enough effect; inconclusive = small, poorly fitted or top-dose-only effect; inactive = flat fitted curve, though single readings scatter; cell line not stated here;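 further: potency means the concentration at half of the fitted maximal effect; % of control where 0% means no effect; nearly all actives have a fitted effect of over 65% in size; a mitochondrial uncoupler was the plate control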
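Stable cell line, 250 cells/well, 12 h attachment; compounds pinned at 5 concentrations, 24 h; CCCP control. Fixed with nuclear dye, primary antibodies 12 h at 10 degrees C, secondary plus cell stain; laser-scanning cytometer read.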
gsp antagonist – antagonizes gsp, the McCune-Albright syndrome mutation; gsp-mutant cells, cAMP HTRF, 30 min; control for the full effect not named in the record; Potency, µM (highest dose often 76.9 µM), for the others: top-dose activity change, negative = inhibition, actives largely listed as inhibitors; 340,000 tested, 0.4% active; active = falling curve of any shape with a large fitted effect; inconclusive = falling curve, mostly with a smaller effect; inactive = flat or rising curve; cell line not stated here;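 further: intracellular cAMP measured with PDE inhibitor Ro 20-1724 present during compound exposure; potency means the concentration at half of the fitted maximal effect; on the % scale 0 is the no-effect control and ±100 the full control effect; nearly all actives have a fitted effect of over 65% in size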
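Cells, 2000/well, grown 16–24 h in DMEM 10% FBS with 0.5 mg/ml G418, then compounds plus […] (300 uM addition stock), 30 min at 37C. cAMP read by HTRF (cAMP-d2 and anti-cAMP antibody-K in lysis buffer) after 30 min RT.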
The depositor's hits bear a star; ? = inconclusive; / = no result given; & = joins results of further samples; [ ] = remark or other dose.

SMILES | Menin MLL FP FL | Sfp PPTase inh | ClpP mod | gsp agonist | D2 agonist | PINK1 modulator | gsp antagonist
COc1ccc(N2CCN(C(CNC(=O)C(=O)NCc3ccncc3)c3ccco3)CC2)cc1 (stereo not drawn) | 3.2 | 10.0% | -3.9% | 11.7% | 1.0 | 1.2% | 0.0%
Cc1cccn2c(=O)c(C=O)c(N3CCC4(CC3)OCCO4)nc12 | -0.2 | 8.3% | / | 6.2%[15.4 µM] | -0.9 | -1.6% | 7.7%
COc1ccc(C(=O)/C=C/Nc2c(C)n(C)n(-c3ccccc3)c2=O)c(OC)c1 | 3.6 | 1.0% | 0.6% | 7.9% | -3.7 | 2.3% | -8.7%
CC(C)c1cccc(C(C)C)c1NC(=O)c1ccccc1 | -4.9 | 22.6% | 0.0% | 5.5% | -4.2 | 0.3% | 10.3%
O=C(c1cccnc1)N(c1cc2sc(=O)oc2c2ccccc12)S(=O)(=O)c1ccccc1 | -1.5 | 3.98µM* | 0.7% | -9.1% | ? | 2.6% | -11.9%
CC(C)Cn1c(SCC(=O)N(C)C2CCS(=O)(=O)C2)nc2cc(Cl)ccc2c1=O (stereo not drawn) | / | / | -4.9% | 24.7% | -0.8 | 2.2% | -1.5%
O=S(=O)(N1CCOCC1)N1CCN(c2ccc(F)cc2)CC1 | -1.8 | 7.2% | -3.0% | -42.2%[inhibitor] | -1.8 | / | 7.9%
CNCCCOc1cccc(Oc2ccccc2)c1 | -2.3 | -14.2% | / | -17.5%[15.4 µM] | -4.7 | 13.0% | 19.7%
CC(NC(=S)Nc1ccccc1C(F)(F)F)C1CC2CCC1C2 (stereo not drawn) | 0.9 | 25.4% | / | 13.6%[15.4 µM] | -1.5 | 2.9% | /
O=C(COc1ccccc1)Nc1nnc(-c2ccc(Cl)s2)o1 | -1.3 | 5.6% | ? | -23.4% | -3.7 | 0.1% | -0.8%
COc1ccc(/C=C2/CCOC2=O)cc1 | -0.5 | 4.7% | -7.0% | -1.5% | -1.5 | 3.3% | 7.6%
Cc1cc(NC(=O)CSc2nccn2-c2ccc(F)cc2)no1 | 0.6 | 1.4% | -15.8% | -28.5% | -0.1 | -1.1% | -3.3%
O=C(Cn1nc(C(=O)O)c2ccccc2c1=O)Nc1ccc(Br)cc1 | 4.3 | 5.4% | / | 0.2%[15.4 µM] | -1.7 | 1.3% | -7.8%
COc1ccc(-n2nnnc2SCC(=O)NCc2ccco2)cc1OC | 0.2 | 11.5% | -2.2% | 1.3% | 1.7 | / | -6.4%
CCOCCCN1C(=O)C(=O)N(CC(=O)N2c3ccccc3NC(=O)CC2C)C1=O (stereo not drawn) | / | / | 1.1% | -3.1% | -5.3 | 2.8% | -16.4%
O=c1[nH]c2ccc([N+](=O)[O-])cc2nc1/C=C(\O)c1ccccc1 | ? | -2.1% | 1.7% | -3.3% | -4.1 | 28.2µM* | -3.9%
Cn1c(-c2sc3cc(C(F)(F)F)cnc3c2-c2cccs2)n[nH]c1=S | 6.5 | -4.8% | / | 5.9% | 2.5 | -0.9% | -26.4%
CC1(C(=O)NS(=O)(=O)C2CC2)CCCN(C(=O)c2cccc(OC(F)(F)F)c2)C1 (stereo not drawn) | / | / | -2.9% | / | 7.9 | 0.5% | /
COC(=O)C1=C(C)NC(=O)NC1c1ccc(-c2ccc(F)cc2)o1 (stereo not drawn) | 8.4 | 0.3% | -0.7% | 6.2% | 3.5 | 2.0% | -18.5%
O=C(O)Cn1c2c(c3ccccc31)CCCC2 | ? | 2.6% | -14.1% | ? | 4.1 | 2.1% | -18.3%
CN(C)S(=O)(=O)Nc1cccc(Br)c1 | 3.8&0.9 | 5.7%&7.8% | -1.5% | ? | 2.0 | 0.9% | 4.2%
O=C(NCCCCNC(=O)c1ccc(Br)s1)c1ccc(Br)s1 | 0.1 | 5.7% | 1.9% | ? | 0.2 | 23.9%[38.3 µM] | 0.8%
CC(C)(C)c1nnc(NC(=O)CCS(=O)(=O)c2ccccc2)s1 | -1.5 | -22.6% | / | -4.1%[15.4 µM] | -2.5 | 1.8% | /
COC(=O)C(C)N1CCC(=O)c2ccccc2S1(=O)=O (stereo not drawn) | -3.2&-0.5 | -9.9%&4.5% | 0.2% | ? | 3.5 | 0.2% | 6.9%
O=C(O)c1ccc2c(c1)S(=O)(=O)c1ccccc1C2=O | -10.0 | 0.9% | -2.3% | 1.6% | -6.9 | -0.1% | -4.5%
COc1ccc(S(=O)(=O)N2CCCCC2)cc1NC(=O)CN(Cc1ccco1)Cc1ccco1 | / | / | -2.1% | ? | 10.0 | -0.2% | ?
CC(C)C12CN3CC(C(C)C)(CN(C1)C3c1ccco1)C2=O (stereo not drawn) | 0.1 | 17.0% | 0.7% | -2.5% | -4.4 | -1.6% | 2.3%
Cc1cc(C)n2nc(-c3ccccc3)c(-c3ccccc3)c2n1 | -0.4 | -5.4% | / | -34.7%[inhibitor] | 8.4 | 3.4% | -1.9%
C=CCNC(=S)N1N=C(c2ccco2)CC1c1ccco1 (stereo not drawn) | / | / | / | 7.8% | -1.9 | 0.1% | -11.8%
O=C(C1CCCN(S(=O)(=O)c2ccc(F)cc2)C1)N1CCOCC1 (stereo not drawn) | / | / | / | 13.5%[15.4 µM] | -1.6 | 2.1% | 11.5%
Cn1c(O)c(C=Nc2ccc(Br)cc2)sc1=O | -0.1 | 12.3% | 0.1% | -41.2%[inhibitor] | -1.8 | 1.6% | -3.2%
COc1cc(NC(=O)Nc2c(C)n(C)n(-c3ccccc3)c2=O)cc(OC)c1OC | 3.4 | 20.7% | -0.5% | -2.8% | 3.9 | 0.2% | 13.0%
CC(C)COc1ccc(-c2nnc(-c3ccncc3)o2)cc1 | -1.4 | -2.4% | 31.6µM* | 8.3% | 1.2 | 17.0% | 2.6%
Oc1ccc(Br)cc1CNc1cccc2cccnc12 | 1.0 | -1.2% | / | 11.2% | 7.4 | 2.3% | -6.6%
Oc1ccc(C[C@@H]2CNCCN2CC2CCCCC2)cc1 | / | / | -3.4% | / | -2.2 | -0.1% | 11.4%
COc1ccc(/C=C2/C(=O)C(C)(C(C)C)CCC2C)cc1 (stereo not drawn) | -2.9 | -6.1% | / | 0.7% | 0.7 | ? | 6.3%
COc1cccc(CNC(=O)CCn2c(=O)oc3ccccc32)c1 | -0.8 | 8.6% | -0.1% | ? | -2.4 | 0.2% | -0.4%
O=C(NC1CCCCC1)N1CCCc2ccccc21 | 0.9 | 8.2% | 0.2% | -73.8%[inhibitor] | -1.8 | -2.0% | 1.9%
CCN(CC)c1ccc(S(=O)(=O)N2CCCCC2)cc1NC(=O)CN1C(=O)NC2(CCCC2)C1=O | / | / | 9.2% | -8.8% | -3.8 | 1.7% | -6.2%
Cc1nc2ccc(N)cc2s1 | -0.3 | 15.7% | -11.8% | -12.5% | 0.8 | 1.3% | 5.5%
CC1(C)CC2(CCO1)OC(=O)CC2C(=O)NCCc1ccccc1 (stereo not drawn) | -1.1 | -5.2% | 0.5% | 3.5% | -2.8 | 1.0% | 14.1%
O=C(CSc1nc2ccccc2c(=O)n1CC1CCCO1)Nc1ccc(F)cc1 (stereo not drawn) | -0.3 | 13.7% | / | 0.2% | -0.2 | -0.8% | 1.0%
CCCc1cc(=O)[nH]c(SCC(=O)NC)n1 | -1.9 | -8.4% | -0.1% | 24.7% | -2.6 | 9.9%[38.3 µM] | 10.3%
Cn1c(SCCN2CCCCC2)nnc1-c1ccccc1Br | -4.2 | ? | 0.8% | -8.2% | -4.0 | -2.7% | 7.1%
COc1cc(C(=O)NCCCNC(=O)c2cc(OC)c(OC)c(OC)c2)cc(OC)c1OC | / | / | 1.5% | -31.5% | -2.3 | 2.2% | 11.7%
CCOC(=O)c1c(SCC(=O)Nc2nccs2)nc(C)c(C)c1C | / | 6.0% | 11.0% | 26.5% | -4.2 | 2.5% | 8.9%
CN(C)c1ccc(-c2nnn(CC(=O)Nc3ccc4c(c3)OCCO4)n2)cc1 | 1.7 | 14.3% | / | -10.5% | -1.1 | 5.0% | 2.4%
O=C(C[C@H]1C[C@@H]2c3cc(NC(=O)Nc4ccccc4F)ccc3O[C@@H]2[C@H](CO)O1)NCc1ccccn1 | / | / | -2.0% | -58.2%[inhibitor] | -1.2 | -1.3% | /
O=C(c1ccccc1)c1ccc(C(=O)N2CCN(c3ccc(F)cc3)CC2)o1 | 1.0 | 6.0% | -1.1% | -28.3% | -3.7 | -0.9% | -11.0%
COc1ccc(CNc2ccc([N+](=O)[O-])cn2)cc1 | 0.8 | 3.5% | / | -28.7%[15.4 µM] | -0.8 | 0.0% | 4.7%

Next section.
SMILES | Menin MLL FP FL | Sfp PPTase inh | ClpP mod | gsp agonist | D2 agonist | PINK1 modulator | gsp antagonist
CCOC(=O)CN1C(=N)N(c2nc(NC(C)C)nc(OC)n2)CC1=O | 4.4 | -1.2% | -1.7% | 8.2% | -2.7 | 0.3% | 1.5%
O=C(Nc1ncc(C(F)(F)F)cc1Cl)C1COc2ccccc2O1 (stereo not drawn) | -1.6 | 5.1% | ? | -35.8%[inhibitor] | -5.1 | -2.2% | -5.9%
COC(=O)C1=CN(c2ccc(Cl)cc2)C=C(C(=O)OC)C1c1ccc([N+](=O)[O-])cc1 | 0.3 | 11.5% | -0.3% | 10.1% | -3.7 | 2.5% | ?
CCN(CC)S(=O)(=O)c1ccc(N2CCOCC2)c(NC(=O)COc2ccc(C#N)cc2)c1 | 5.5 | 14.3% | / | 21.7%[15.4 µM] | -1.8 | 0.9% | -1.6%
Cc1ccc2c(c1)/C(=N/O)CCS2 | 3.9 | 2.5% | -10.2% | ? | -2.4 | 0.9% | 16.5%
CCN(CC)S(=O)(=O)c1cccc(C(=O)NN2Cc3ccccc3C2=N)c1 | 0.5 | 1.2% | -3.9% | 18.2% | -3.4 | 2.5% | -4.6%
